Bioassay records as filed in PubChem BioAssay.
hNpr1 antagonist: Natriuretic polypeptide receptor (hNpr1) antagonism - Primary qHTS | Potency, µM (titrated, usually from 46.3 µM), for inactives: top-dose activity change, negative = inhibition, most hits filed as inhibitors | 76,000 compounds, 1.6% hits | HEK293 hNpr1 GloSensor cGMP, ANP-stimulated luminescence; active = well fitted inhibition curve with a large enough effect; inconclusive = small, poorly fitted or top-dose-only effect; inactive = no such curve, though single readings can be large or run the other way;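 further: nearly all actives have a fitted effect of over 60% in size; nearly all hits also lower the signal before the agonist is added; a reference antagonist and vehicle were the controls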
Target sequence (P16066 whole entry, looked up): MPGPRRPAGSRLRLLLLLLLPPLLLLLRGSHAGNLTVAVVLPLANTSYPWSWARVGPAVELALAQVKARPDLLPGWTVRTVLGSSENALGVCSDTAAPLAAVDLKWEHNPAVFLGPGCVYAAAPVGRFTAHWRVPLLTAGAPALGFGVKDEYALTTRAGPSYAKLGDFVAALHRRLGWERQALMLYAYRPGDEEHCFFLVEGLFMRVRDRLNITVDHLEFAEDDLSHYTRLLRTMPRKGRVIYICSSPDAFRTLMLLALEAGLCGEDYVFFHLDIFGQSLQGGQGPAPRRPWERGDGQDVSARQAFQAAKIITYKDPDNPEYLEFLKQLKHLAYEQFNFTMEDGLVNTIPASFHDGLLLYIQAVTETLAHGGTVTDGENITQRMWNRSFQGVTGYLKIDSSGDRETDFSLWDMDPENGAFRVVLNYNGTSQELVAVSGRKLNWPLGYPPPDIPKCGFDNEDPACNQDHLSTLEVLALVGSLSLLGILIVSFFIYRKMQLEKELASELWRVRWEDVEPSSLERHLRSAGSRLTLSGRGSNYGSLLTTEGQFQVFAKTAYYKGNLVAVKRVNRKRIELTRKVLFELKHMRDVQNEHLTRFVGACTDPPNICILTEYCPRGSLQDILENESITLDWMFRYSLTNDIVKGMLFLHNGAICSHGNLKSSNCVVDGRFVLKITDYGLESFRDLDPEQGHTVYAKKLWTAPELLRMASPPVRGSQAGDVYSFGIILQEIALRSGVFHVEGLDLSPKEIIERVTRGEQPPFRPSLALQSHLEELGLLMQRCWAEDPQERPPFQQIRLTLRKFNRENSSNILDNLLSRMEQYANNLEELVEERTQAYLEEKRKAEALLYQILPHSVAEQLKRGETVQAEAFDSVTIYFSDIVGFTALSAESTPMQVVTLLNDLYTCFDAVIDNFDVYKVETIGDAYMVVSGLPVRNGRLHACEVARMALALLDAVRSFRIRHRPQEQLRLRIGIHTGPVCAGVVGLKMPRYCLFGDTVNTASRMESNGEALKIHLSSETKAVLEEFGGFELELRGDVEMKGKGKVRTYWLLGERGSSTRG
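HEK293 cells stably expressing human Npr1 and cGMP GloSensor pGS-40F, loaded 2 h with 2% GloSensor reagent, given compound 30 min at room temperature. Luminescence read before and 20 min after 0.1 nM hNppA.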
* marks the source's active call; other numbers are inactive results; ? = inconclusive; [ ] = dose if it differs, or a comment. On the % scale 0 is the no-effect control and ±100 the full control effect; potency means the concentration at half of the fitted maximal effect. An excerpt; count on the stated rates, not on these rows.

SMILES	hNpr1 antagonist
CC(CCc1ccccc1)NC(=O)c1ccc(Cn2ccn3nc4c(c3c2=O)CCCC4)cc1 (stereo unspecified)	-17%
O=C(N[C@H]1[C@H](O)[C@H](O)C[C@@H]1c1cccnc1)c1ccccn1	10%[70.6 µM]
COCCC1(NC(=O)c2ccoc2)CCN(CC2CC2)CC1	0%
NC(=O)[C@@H]1CCCN1CC[C@H]1CN(C(=O)c2ccc(F)cc2)CC[C@H]1CC(=O)O	2%[70.6 µM]
COCc1nc2nccc(-c3ccc4c(c3)OCCCO4)n2n1	-7%
COc1cccc(C(=O)N2CCC(OC3CCN(S(C)(=O)=O)CC3)CC2)c1	7%
CC(=O)N1C[C@@H]2CCCN3CCC[C@@H]([C@H]23)[C@H]1CCCC(=O)N(C)C1CCN(C)CC1	0%
Cc1ncc2c(c1CNC(=O)Cc1ccsc1)CCN(C(=O)Cc1c(F)ccc(F)c1F)C2	1%
CNC(=O)c1ccc(CNc2cc(C3CC(O)C3)nc(N)n2)o1 (stereo unspecified)	2%
Cc1cc(C)cc(Nc2nc(C)cc(=O)n2CC(=O)Nc2ccc(Br)cc2)c1	?
CCCN(CC1CC1)C(=O)c1ccc2c(c1)C(O)CCCCCN2C (stereo unspecified)	1%
CCNC(=O)N1CCC(OC2CCN(Cc3ccccc3)CC2)CC1	-2%
COc1cc(NC(=S)N[C@H]2CO[C@H]3[C@@H]2OC[C@@H]3n2nnnc2Oc2ccc(-n3cncn3)cc2)cc(OC)c1	0%
O=C(COc1ccc(F)cc1F)N1CCCC(Cc2nc3ccccc3[nH]2)C1 (stereo unspecified)	-1%
CCCn1c(C)c(CC(=O)N2CCOCC2)c2c1CC(C)(C)CC2=O	3%

Reformatted: entries from further up
compound,hNpr1 antagonist
CCCn1c(C)c(CC(=O)N2CCOCC2)c2c1CC(C)(C)CC2=O,3%
COc1cc(NC(=S)N[C@H]2CO[C@H]3[C@@H]2OC[C@@H]3n2nnnc2Oc2ccc(-n3cncn3)cc2)cc(OC)c1,0%
COCc1nc2nccc(-c3ccc4c(c3)OCCCO4)n2n1,-7%

The listing continues.
SMILES	hNpr1 antagonist
CCn1ncc(N2CCCC(CC(=O)NC3CCCC3)C2)cc1=O (stereo unspecified)	-1%
Fc1ccc(-c2nnc3ccc(NCCc4ccccn4)nn23)nc1	6%[70.6 µM]
O=C(CN1CCCC1)N[C@H]1CC[C@H](Nc2nccc(-c3cccnc3)n2)C1	2%
O=C(c1ccc(F)cc1)N1CCC(Cc2nc(C3CCOCC3)no2)CC1	?
COc1cccc(NC(=O)CC2CCCN(c3cnn(CC4CC4)c(=O)c3)C2)c1 (stereo unspecified)	-1%
CCCCCCN(CCC(=O)NCc1ccccc1)C(=O)c1ccoc1	-3%
COc1ccc(C(=O)N[C@@H]2CCC[C@@H]2C(=O)NCc2cc(OC)ccc2OC)cc1	-3%
CCCCn1ccnc1C1CCCN(C(=O)c2ncc(F)cc2F)C1 (stereo unspecified)	-2%
COC(=O)[C@H](NC(=O)C1=C[C@@H](NS(=O)(=O)c2cccc(C(F)(F)F)c2)[C@@H](O)[C@H](O)C1)C(C)C	-8%
CN(C)CC1(O)CCC2(CCN(C(=O)c3cccn3C)CC2)CC1	5%
CNC(=O)N1CCCC(n2c(C)cnc2-c2ccncc2)C1 (stereo unspecified)	8%
c1ccc(Nc2cc3c(cn2)NCCN(Cc2ccccn2)C3)cc1	2%[70.6 µM]
CN1c2cc(C(=O)NCc3ccccc3Br)ccc2C(=O)N2CCCCC21 (stereo unspecified)	-1%
CCCCN(CCC(=O)NCc1ccco1)C(=O)c1cc(C)oc1C	-3%
C[C@@]1(O)CCN(C(=O)c2cccc(F)c2)C[C@H]1N1CCCC1	0%
COc1ccc(C(=O)N[C@H]2C[C@@H](Cc3cc(-c4ccccc4)on3)C2(C)C)cc1	?
COc1ccc(CC(=O)N[C@H]2CCOC[C@H]2C2CCOCC2)c(OC)c1	2%
COc1ccccc1C(=O)N1CCC(CCOc2ccncc2)C1 (stereo unspecified)	-2%
O=C(COc1ccc(-c2nnc3n2CCCC3)cc1)Nc1cccc(Br)c1	3%
O=C(NCC1Cn2cccc2CN1Cc1ccccc1)c1n[nH]c2ccccc12 (stereo unspecified)	-27%
N#Cc1cccc(C(=O)N2CCCCCNC(=O)[C@@H]3CCC[C@@H]32)c1	3%
Cc1cccc(CNc2ncncc2-c2nc(-c3ccccc3)no2)c1	-4%
Cc1cnc(CCNC(=O)c2n[nH]c(=O)c3ccccc23)n1C1CCC1	-1%
O=C1c2cnc(-c3ccc(O)c(F)c3)nc2OCCN1Cc1ccccc1	-11%[70.6 µM]
CN(C)c1ccc(-c2noc(-c3nc(-c4ccc5c(c4)OCO5)no3)n2)cc1	-10%
Cc1ccc(NC(=O)Cn2c(-c3ccc(F)cc3)nc(C)cc2=O)c(C)c1	5%
O=C1CCC(CCC(=O)N2CCC(c3ccc(F)cc3)C2)(Cc2ccc3ccccc3c2)N1 (stereo unspecified)	2%
CN(C)[C@@H]1CO[C@H](CNC(=O)c2ccncc2)[C@H]1O	-4%[70.6 µM]
Cc1ccc(CN[C@@H]2CO[C@H](CNC(=O)NC(C)C)[C@H]2O)cc1	-12%[70.6 µM]
CN1C(=O)CCC2(CNC(=O)C3CC3)CCCC=C12 (stereo unspecified)	4%
O=C(C[C@@H]1CCNC[C@@H]1Cc1cc(-c2ccc(F)cc2)on1)Nc1nccs1	-2%[70.6 µM]
CCOC(=O)C1CCCN(C(=O)C2CC(c3ccc(F)c(C)c3)CN(C(=O)NC(C)C)C2)C1 (stereo unspecified)	0%
NC(=O)C1CCN([C@H]2[C@@H]3OC[C@@H](O3)[C@@H](NCc3ccccc3)[C@@H]2O)CC1	-2%[70.6 µM]
O=C1OC2(CCN(C(=O)c3ccco3)CC2)CN1CCOc1ccccc1	2%
CNC(=O)N1CCC(C2CCN(Cc3ccccc3C#N)C2)CC1 (stereo unspecified)	1%
c1ccc([C@@H]2CNC[C@H]2COCC2CC2)nc1	3%
CCc1ccc(C(=O)N2CCC3(CC2)OCC(C(=O)NC2CC2)N3C(=O)c2cccc(C)c2)cc1 (stereo unspecified)	1%
CCC[C@@H]1CN(C(=O)CNS(=O)(=O)c2cccs2)C[C@H]1NC(C)=O	2%
CCn1cnnc1CCNC(=O)CC1C(=O)NCCN1Cc1ccccc1 (stereo unspecified)	1%
COc1ccc(CC(=O)N2CCc3c(cnc(C)c3CNC(=O)c3ccc4c(c3)OCO4)C2)cc1	-1%
C[C@H]1[C@@H]2[C@@H](O)C([C@H](C)C(=O)NCc3cccnc3)CC[C@@]2(C)CC[C@@H]1NC(=O)c1cccc(F)c1 (stereo partly specified)	-1%
CC(=O)Nc1ccc(-c2ccc(=O)n3c2[C@@H]2C[C@@H](CN(C(=O)Nc4cccc(C#N)c4)C2)C3)cc1	4%
Cc1nc(C2CC(NC(=O)c3ccc(C)c(N4CCNC4=O)c3)C2)cc(=O)[nH]1 (stereo unspecified)	5%
O=C(CN1CC2CC(C1)[C@H]1CCCC(=O)N1C2)NCc1cccc(F)c1 (stereo partly specified)	2%
O=C(Cn1ccn2nc(-c3ccccc3)c(CO)c2c1=O)Nc1cccc(Br)c1	-21%

Ordered by the number under hNpr1 antagonist (ascending): some entries from above.
| canonical_smiles | hNpr1 antagonist |
| --- | --- |
| O=C(Cn1ccn2nc(-c3ccccc3)c(CO)c2c1=O)Nc1cccc(Br)c1 | -21% |
| C[C@H]1[C@@H]2[C@@H](O)C([C@H](C)C(=O)NCc3cccnc3)CC[C@@]2(C)CC[C@@H]1NC(=O)c1cccc(F)c1 (stereo partly specified) | -1% |
| CCn1cnnc1CCNC(=O)CC1C(=O)NCCN1Cc1ccccc1 (stereo unspecified) | 1% |
| O=C1OC2(CCN(C(=O)c3ccco3)CC2)CN1CCOc1ccccc1 | 2% |
| c1ccc([C@@H]2CNC[C@H]2COCC2CC2)nc1 | 3% |
| CC(=O)Nc1ccc(-c2ccc(=O)n3c2[C@@H]2C[C@@H](CN(C(=O)Nc4cccc(C#N)c4)C2)C3)cc1 | 4% |
| Cc1nc(C2CC(NC(=O)c3ccc(C)c(N4CCNC4=O)c3)C2)cc(=O)[nH]1 (stereo unspecified) | 5% |

Further records
SMILES	hNpr1 antagonist
CCn1ncc(N2CCCC(CC(=O)NC3CCN(Cc4ccccc4)CC3)C2)cc1=O (stereo unspecified)	-17%
O=C([C@@H]1C[C@H](F)CN1C(=O)c1ccsc1)N1CCCCC1	3%
CCN1CCN(C2(C(=O)NCCc3ccccc3)Cc3ccccc3C2)CC1	1%
COc1ccc(-c2cc3c(ccn3C)c(C(=O)NCc3cccnc3)n2)cc1OC	-4%[70.6 µM]
COCCN1CC(CO)C2(CCN(Cc3ccccc3C(F)(F)F)CC2)C1 (stereo unspecified)	5%
CCc1nc(-c2c3n(c(=O)n(CC(=O)Nc4ccc(F)cc4)c2=O)CCCCC3)no1	2%
Cc1nc(CN2C(=O)OC3(CCN(C(=O)c4cccnc4)CC3)C2(C)c2ccccc2)cs1 (stereo unspecified)	-2%
CC(=O)N1CCN(c2nc3c(s2)CC(C(=O)NCc2ccccc2C)CC3)CC1 (stereo unspecified)	-1%
COc1ccccc1N1CCN([C@@H]2[C@H](O)[C@H](CO)O[C@@H]2CNC(=O)Nc2ccc(F)cc2F)CC1	0%
C[C@@H](NS(C)(=O)=O)c1onc(-c2ccc(F)cc2)c1C(=O)O	1%[70.6 µM]
O=C(O)COCC(=O)N1CC[C@H](C(=O)Nc2cc(Cl)ccc2O)C1	1%[70.6 µM]
Oc1ccccc1CNC1(Cc2cc(CN3CCOCC3)on2)COC1	-1%[70.6 µM]
O=C(NCC(O)c1ccccc1C(F)(F)F)c1cccc(-n2cnnc2)c1 (stereo unspecified)	10%
CCCNc1cc(N2CCC(CCC(=O)NCc3ccccc3Cl)CC2)ncn1	-13%
Cc1ccccc1N1Cc2c(NC3CCCCCC3)ncnc2N(C)CC1=O	-1%
CCn1nccc1C(=O)N1CCCCCCNC(=O)[C@@H]2CCCC[C@@H]21	1%
CC(=O)N1CC(C(=O)NCc2ccccc2F)CC(c2cccc(C)c2)C1 (stereo unspecified)	-2%
COc1cccc([C@@H]2CCN(Cc3cn[nH]c3C(=O)O)C[C@H]2O)c1	3%
Cc1csc(NC(=O)c2nc3c(o2)CCN(Cc2cccc(F)c2)CC3)n1	-25%[70.6 µM]
COCCNC(=O)c1ccc(CC2CCN(C(=O)CCc3ccc(OC)cc3)CC2)cc1	-17%
CSCCNC(=O)C1CCCN1c1nc2ncccc2o1 (stereo unspecified)	16%[70.6 µM]
Cc1noc(-c2ccc(OC(F)(F)F)cc2)c1C(=O)NCc1ccsc1	1%
COc1ccc(-c2ccnc(N[C@H]3CO[C@H]4[C@@H]3OC[C@@H]4NC(=O)CC3(CC(=O)O)CCCC3)n2)cc1	-3%
O[C@@H]1C[C@@H](c2nc(-c3ccc(F)cc3)no2)N(Cc2cc3ccccc3o2)C1	0%[70.6 µM]
C[C@H]1[C@@H]2[C@@H](O)C([C@H](C)C(=O)NC3CCCC3)CC[C@@]2(C)CC[C@@H]1NC(=O)c1ccncc1 (stereo partly specified)	0%
COc1ccccc1CCC(=O)N1CC(c2nnc(-c3ccncc3)o2)C2(CCOCC2)C1 (stereo unspecified)	-5%
CC(C)N1CC[C@@H]2[C@H]1C(=O)NC[C@H](CCC(=O)Nc1ccccc1)N2C	7%[70.6 µM]
CCn1ncc(N2CCCC(CC(=O)NCc3ccccn3)C2)cc1=O (stereo unspecified)	5%
CCO[C@H]1CN(Cc2ccccc2OCCn2ccnc2)C[C@@H]1O	1%
Cc1cnn(CCC(=O)NC2CCN(c3ccc(=O)n(C)n3)CC2)c1	-2%
O=C1COc2ccc(-c3cc(F)cc(F)c3)nc2CN1Cc1ccccc1	1%[70.6 µM]
CCCN(CC1CCOC1)C(=O)NC1CCCCC1 (stereo unspecified)	-1%
O=C1NC(C(=O)N2CCOCC2)CN1Cc1ccccc1 (stereo unspecified)	17%[70.6 µM]
CSc1ccc(NC(=O)N2CCC(N(CCC(C)C)C3CCOCC3)CC2)cc1	-2%
COc1ccc(C(=O)N[C@@H]2CCC[C@@H]2C(=O)NCc2cccc(C)c2)cn1	1%
COc1ccc(CN2CCOc3nc(-c4cc(F)cc(F)c4)ncc3C2=O)cc1	-24%[70.6 µM]
COc1ccc(CN2CCc3oc(C)c(C(=O)NC(C)Cn4ccc(C)n4)c3C2)cc1 (stereo unspecified)	-1%
O=C(Nc1ccccc1)N1CCc2nnc(C3CC3)n2CC1	-1%
CCN(CC)Cc1ccc2c(c1)CNCCO2	0%
COc1ccc(C(=O)N2CCCCC2c2nc(CCOCC3CCOCC3)no2)cc1F (stereo unspecified)	-13%
O=C(c1cccc(F)c1)N1CCC(c2nc(C3CCOCC3)no2)CC1	0%
CC(C)Cc1cn(CC2CCCN(C(=O)c3n[nH]c4c3CCCC4)C2)nn1 (stereo unspecified)	14µM*
O=C(Nc1ccc2ncnc(N3CCCCC3)c2c1)c1cncc(Br)c1	-25%
COC(=O)c1cc(OCC2CCC2)cc(C(=O)N2[C@H]3CCNC[C@@H]2CC3)c1	5%
Cc1cccnc1CC(C)NC(=O)c1csc2nc(-c3ccccc3Cl)cn12 (stereo unspecified)	-14%
CCn1ncc(N2CCC(NC(=O)CCC3CCCCC3)CC2)cc1=O	-3%
Cc1nc(C)c(C(=O)N2CCCN(Cc3ccncc3)C(c3ccccc3)CC(=O)NCC2)s1 (stereo unspecified)	5%
COc1ccccc1-c1[nH]nc2ncc(-c3ccnc(C)c3)nc12	-1%[70.6 µM]
O=C1CO[C@H]2CCN(Cc3ccccn3)CC[C@@H]2N1CCc1cccnc1	-4%[70.6 µM]
Cn1cc2c3c(cccc31)CN(C(=O)C1CCC1)CC2	9%
